Source: PubChem (several laboratories)
LANA-H2A inh = blockers of LANA interaction with H2A/H2B – biochemical, FP readout, HTS, primary screen; Protein LANA1 (Human herpesvirus 8 type P (isolate GK18)), Q9QR71; cell-free LANA-H2A/H2B peptide, fluorescence polarization; 0.6% of 320,000 active; AID 2629, 2010; inhibition, % (concentration not given with the values); in the data active = inhibition mostly above about 10%, no sharp cut-off; inactive = mostly below about 6.7%;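 note: stock transfer was 7.5 nL into about 10 µL; 0% = median of vehicle wells and 100% = median of positive control wells; one replicate is shown; the record names a cut of 25% in any replicate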
Vif A3G = inhibitors of Vif binding to APOBEC3G peptide, primary screen, biochemical, TR-FRET, GST-Vif 1-94, biotin-A3G peptide, dose response retest (AID 1117319). Virion infectivity factor (Human immunodeficiency virus type 1 group M subtype B (isolate …. TR-FRET GST-Vif / biotin-A3G peptide binding; higher % means a stronger effect; test concentration not given here; strong numbers were not always called active. inhibition, %; hits with a dose series show IC50 in µM. 0.57% of 260,000 active;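 active = above the screen mean plus three standard deviations and confirmed in dose response; inconclusive = results disagree or hit not tested in dose response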;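 note: Vif residues 1-94 fused to GST binding biotinylated APOBEC3G peptide 110-148; 0% = full assay without inhibitor and 100% = GST in place of GST-Vif; retest series ran down from 100 µM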
E coli growth = E. coli growth inhibition, primary screen, OD600; Escherichia coli growth, 23 h; active compounds read low; AID 1053175, 2014; 0.21% of 330,000 active; OD600 absorbance (test concentration not listed);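 active = OD600 absorbance below the run mean of sample wells minus 3.6 SD, in any replicate, cut at about 0.56 in these data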;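 note: stock transfer was 300 nL into about 60 µL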
A1 inh = caspase 3/7 activation in MEF A1-2A-BIM cells, primary screen, A1 inhibitor project, cell-based, luminescence, HTS; Caspase-Glo 3/7 luminescence, 3 h; percent of clofoctol response, vehicle zero; caspase activation, % (concentration not given with the values); 0.066% of 330,000 active;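 active = over half of replicate activation scores above 10%, or exactly half above 10 with the replicate mean above 10; inconclusive = replicate mean below 10 yet half the replicates above 10; inactive = over half of replicates below 10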;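 note: wells of about 30 µL received 50 nL stock; many hits fall short of the cut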
Beta2AR agonist = beta2AR agonists driving receptor internalization, primary screen, cell-based, FAP fluorogen, flow cytometry; Beta-2 adrenergic receptor (Homo sapiens), P07550; Am2.2-beta2AR cells; reference of the scale not given here; response, % (concentration not given with the values); 0.43% of 340,000 active; AID 504454, 2011;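 active = response above a set limit, near 3 SD of response in nonfluorescent compounds, cut at about 42% in these data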;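 note: stock transfer was 100 nL into about 11 µL; a reference agonist was the positive control; negative values mostly stem from fluorescent compounds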
Target sequence (P07550 whole entry, looked up): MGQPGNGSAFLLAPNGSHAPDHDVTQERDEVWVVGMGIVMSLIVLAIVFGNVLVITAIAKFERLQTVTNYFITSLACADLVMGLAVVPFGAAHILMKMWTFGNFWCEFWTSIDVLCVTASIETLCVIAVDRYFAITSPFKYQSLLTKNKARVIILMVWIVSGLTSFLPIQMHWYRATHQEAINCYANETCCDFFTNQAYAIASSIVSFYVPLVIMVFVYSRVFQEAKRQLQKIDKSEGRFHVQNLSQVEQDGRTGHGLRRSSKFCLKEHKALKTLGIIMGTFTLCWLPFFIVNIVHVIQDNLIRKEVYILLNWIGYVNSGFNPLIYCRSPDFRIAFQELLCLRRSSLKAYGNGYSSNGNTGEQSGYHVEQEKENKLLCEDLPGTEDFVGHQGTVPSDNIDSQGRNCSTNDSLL
UCH37 DUB inh = inhibitors of human UCH37 deubiquitinase, primary screen, biochemical, Ub-AMC cleavage, fluorescence; Ubiquitin carboxyl-terminal hydrolase isozyme L5 (Homo sapiens), Q9Y5K5; purified proteasome/UCH37; inhibition, % (no concentration beside the values); 0.33% of 330,000 active; AID 588478, 2011;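 active = mean of two replicates above 20%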;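 note: 0% = compound-free wells with enzyme and 100% = wells lacking proteasome; stock transfer was 100 nL into about 20 µL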
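Reagent: Ub-AMC substrate; assay system: Proteasome-associated human UCH37 deubiquitinase; controls: no-proteasome and no-compound wells; read-out: % inhibition of Ub-AMC cleavage fluorescence; timing: 30 min preincubation with enzyme, 25 min cleavage at room temperature; signal: AMC fluorescence from Ub-AMC cleavage, excitation 355 nm, emission 460 nm; buffer or medium: Tris-HCl pH 7.4 plus ovalbumin, ATP-MgCl2, DTT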
HNF4A DNA FP = change in binding of human HNF4A to DNA, primary screen, biochemical, fluorescence polarization, FITC-DNA. Hepatocyte nuclear factor 4-alpha (Homo sapiens), P41235. 1 h. activity change, % at 10 µM. 0.3% of 360,000 active. AID 1224865, 2016; in the data active = activity change above about 30%, passing the limit was not always enough;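 note: controls were the assay level and a saturating level of protein; the project sought stronger binding though the title names inhibitors; some compounds called inactive have numbers as strong as hits; positive values seem to mean higher polarization but the record does not say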
Target sequence (P41235 whole entry, looked up): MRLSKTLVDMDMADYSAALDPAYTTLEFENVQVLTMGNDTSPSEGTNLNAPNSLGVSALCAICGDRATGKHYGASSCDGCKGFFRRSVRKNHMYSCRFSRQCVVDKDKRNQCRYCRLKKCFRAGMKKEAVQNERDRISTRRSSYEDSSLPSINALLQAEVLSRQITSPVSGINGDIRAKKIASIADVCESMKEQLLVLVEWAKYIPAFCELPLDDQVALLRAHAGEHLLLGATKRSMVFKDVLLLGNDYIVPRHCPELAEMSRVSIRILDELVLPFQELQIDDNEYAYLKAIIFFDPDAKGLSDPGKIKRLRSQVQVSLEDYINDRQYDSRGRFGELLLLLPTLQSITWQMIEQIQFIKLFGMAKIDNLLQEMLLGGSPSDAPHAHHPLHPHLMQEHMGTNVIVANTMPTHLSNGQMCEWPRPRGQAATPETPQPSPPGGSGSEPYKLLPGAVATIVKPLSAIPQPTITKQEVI
Active calls of the source: *; u = inconclusive; x = not tested or not shown; & = joins results of further samples.

compound,UCH37 DUB inh,HNF4A DNA FP,E coli growth,A1 inh,LANA-H2A inh,Beta2AR agonist,Vif A3G
O=C(Cc1ccc(Cl)cc1)NNC(=O)c1cnccn1,-0.3,-2.0,0.63,0.0,-0.9,0,x
Cc1ccc(S(=O)(=O)N2CCC(=O)N(C(COCc3ccc(Cl)cc3Cl)Cc3ccccc3)CC2)cc1 (stereo not drawn),0.6,0.2,0.76,0.2,-2.4,9,21%
O=C(CN1C(=O)NC2(CCCCC2)C1=O)N1CCN(c2ncccn2)CC1,-2.2,-3.3,0.71,0.3,-2.4,-6,4%
CCOc1ccc(-c2nnc(SCC(=O)N3CCOCC3)o2)cc1,3.4,2.6,0.73,0.0,-0.9,1,17%
CC(=O)N1CCC(C(=O)NCCOc2cccc(C)c2)CC1,0.5,-2.6,0.64,-0.2,2.3,1,x
Nc1c(N(CCCO)C(=O)C2CCCC2)c(=O)[nH]c(=O)n1Cc1ccccc1,3.4,-0.5,0.7,-0.3,0.3,-1,-18%
Cc1ccc(NS(=O)(=O)c2c(C)[nH]c(=O)[nH]c2=O)cc1C,0.5,-0.5,0.66,-0.5,-8.2,3,1%
Cc1cc(C)n(CCNC(=O)c2ccc3c(c2)OCO3)n1,1.0,-1.5,0.71,0.2,2.2,-2,x
CN1N=C(N)c2cn(C3OC(COP(=O)(O)O)C(O)C3O)c3ncnc1c23 (stereo not drawn),x,-5.7,x,x,x,-2,0%
Cc1occc1C(=O)Nc1ccc(OCc2ccccc2)cc1,3.3,-1.9,0.72,-8.4,2.4,9,11%
CCO[C@@H]1OC(C(=O)N2CCN(C)CC2)=C[C@H](c2csc3ccccc23)[C@H]1CCCO,4.4,-5.5,x,0.6,-2.8,-10,-9%
CN=C(c1ccccc1)c1c(C)cccc1C,0.2,1.6,0.66,0.7,1.0,-3,u
COC(=O)c1[nH]c2ccc(C)cc2c1NC(=O)CN1CCC(C)CC1,-14,3.7,0.68,1.9,-3.7,5,2%
O=C(O)COc1ccc(Nc2ccccc2)cc1,4.3,2.1,0.69,-1.1,10,2,u
CSc1cccc(N2CC(C(=O)NCCC3=CCCCC3)CC2=O)c1 (stereo not drawn),3.4,0.6,0.7,0.5,13,4,1%
O=C(COC(=O)c1cccc(S(=O)(=O)N2CCOCC2)c1)NCCc1ccccc1,-0.7,0.1,0.68,1.3,-4.4,-4,x
COc1ccc(S(=O)(=O)N2CCN(CC(=O)Nc3cc(Cl)ccc3Cl)CC2)cc1,3.9,-2.5,0.68,-1.2,2.5,6,-11%
CCOC(=O)Cn1nc(C)c(NC(=O)CCc2ccc(OC)cc2)c1C,0.6,-4.1,0.7,0.5,0.0,-3,3%
C[n+]1ccn(CC(=O)c2ccc(Cl)cc2)c1,4.9,-0.5,0.66,0.3,-2.8,12,9%
Brc1ccccc1OCCN1CCOCC1,-0.7,0.5,0.65,0.8,1.9,-4,x
CCOC(=O)C1(Cc2cccc(OC)c2)CCN(Cc2cccc(OC)c2O)CC1,3.7,-1.9,0.69,0.5,-0.5,-1,9%
COC(=O)NC(=S)Nc1ccc(Oc2ccc(Cl)cc2Cl)c(Cl)c1,0.6,0.5,0.74,0.1,-3.0,9,u
COC(=O)c1cccc(NC(=O)CSc2nnc(C3CC3)n2C)c1,-0.2,1.5,0.69,-0.2,2.5,-7,x
COC(=O)C(C)Sc1nc2c(cnn2-c2ccccc2)c(=O)[nH]1 (stereo not drawn),4.8,-1.0,0.66,0.3,0.8,11,-3%
Cn1nnc(NC(=O)c2ccc([N+](=O)[O-])cc2Cl)n1,1.7,-3.3,0.73,0.2,-1.0,9,-7%
CCOc1ccc(S(=O)(=O)N(C)CC(=O)NC2CCCC2)cc1,0.6,2.8,0.71,-0.6,-3.2,-4,-9%
COc1ccc(-n2nnnc2SC(C)C(=O)NCC(=O)Nc2ccc(F)c(F)c2F)cc1 (stereo not drawn),6.0,-0.5,0.69,-0.2,0.4,-8,x
O=C(CNS(=O)(=O)c1ccccc1)NCC(=O)OCc1ccc(C(=O)c2ccccc2)cc1,3.6,2.3,0.72,-0.2,4.2,-4,14%
CC(=O)C1=C(NC(=O)c2ccc(F)cc2)CC2C1C2(C)C (stereo not drawn),3.0,-1.9,0.71,-0.2,-6.7,-4,-3%
CCn1cc(C(=O)N[C@H](C(=O)NC(C)(C)CO)C(C)C)c(=O)c2cc3c(cc21)OCO3,-3.3,-0.6,0.64,-0.2,-1.0,2,-4%
COc1ccc(O)c(C(=O)c2cc(C#N)c(=O)n(CCN3CCOCC3)c2)c1,3.7,4.2,0.66,-1.2,-3.5,-5,8%
COc1ccc(C(=O)Nc2ccc(N3CCC(C)CC3)cc2)cc1Br,3.1,-4.6,0.71,-0.1,3.2,0,-6%
COc1ccc(CC(=O)Nc2nc(C(C)(C)C)cs2)cc1,2.5,-1.3,0.66,0.9,2.9,-1,x
O=C(COc1ncnc2sccc12)Nc1cccc(S(=O)(=O)N2CCOCC2)c1,5.2,9.2,0.68,0.0,-0.8,7,-9%
NNC(=O)c1cccc(S(=O)(=O)Nc2cccc(C(F)(F)F)c2)c1,-3.4,-2.3,0.63,0.6,3.6,5,21%
C1CCc2c(nc3nnnn3c2N2CCOCC2)C1,4.3,0.9,0.74,-0.7,-4.5,-7,5%
CNC(=S)NNC(=O)c1ccccc1F,0.9,-1.8,0.68,0.4,-0.4,7,2%
CCOC(=O)Cc1c(C)nc2c(-c3ccc(Cl)cc3)c(C)nn2c1C,1.4,-3.5,0.72,-0.3,-3.1,9,-9%
CCN1CCN(c2ncc(C(=O)Nc3cc(Cl)c(OC)cc3OC)c3ccccc23)CC1,-4.4,-3.0,0.62,x,x,7,-7%
COc1ccc(CCNC(=O)CN2C(=O)c3ccccc3C2=O)cc1,0.3,0.6,0.66,-0.1,-3.7,11,4%

Reformatted as labelled records: part of the list above.
COc1ccc(CCNC(=O)CN2C(=O)c3ccccc3C2=O)cc1
- UCH37 DUB inh: 0.3
- HNF4A DNA FP: 0.6
- E coli growth: 0.66
- A1 inh: -0.1
- LANA-H2A inh: -3.7
- Beta2AR agonist: 11
- Vif A3G: 4%

CCn1cc(C(=O)N[C@H](C(=O)NC(C)(C)CO)C(C)C)c(=O)c2cc3c(cc21)OCO3
- UCH37 DUB inh: -3.3
- HNF4A DNA FP: -0.6
- E coli growth: 0.64
- A1 inh: -0.2
- LANA-H2A inh: -1.0
- Beta2AR agonist: 2
- Vif A3G: -4%

Following part
compound,UCH37 DUB inh,HNF4A DNA FP,E coli growth,A1 inh,LANA-H2A inh,Beta2AR agonist,Vif A3G
CN(C(=O)C1CCOC1)c1nnc(-c2ccccn2)s1 (stereo not drawn),0.1,-0.6,0.74,0.2,-3.8,-11,u
N#C/C(=C\c1cn(Cc2ccccc2F)c2ccccc12)C(=O)NCc1ccco1,-54,7.8,0.74,-0.8,-1.7,0,-3%
CC(NC(=O)CCCc1ccccc1)c1ccncc1 (stereo not drawn),1.6,-1.2,0.66,2.0,-1.2,-4,x
Cc1ccc(N(CC(=O)NCCSCc2ccco2)S(=O)(=O)c2ccc(C)cc2)cc1,1.3,30,0.75,1.1,-2.9,-2,-4%
O=[N+]([O-])c1ccc(C(=Nc2cccc3ccccc23)N2CCOCC2)cc1,2.2,2.1,0.64,0.4,-0.6,-1,22%
CCC(=O)Nc1cccc(NC(=O)CSc2nc3c(c(=O)n(C)c(=O)n3C)n2C)c1,2.9,1.5,0.7,-0.2,9.2,4,-2%
Cc1ccccc1SCC(=O)NC1CCOC1=O (stereo not drawn),-0.4,-3.1,0.66,-0.2,0.1,9,0%
CC(C)NC(=S)NNc1nc2ccccc2s1,-0.7,-5.2,0.7,0.3,1.8,3,-6%
COc1ccc(C2=NN(c3ccccc3)C(c3cn(CCC(=O)O)nc3-c3ccccc3)C2)cc1 (stereo not drawn),-337,-0.2,0.69,0.6,9.4,5,3%
COc1ccc(C(=O)N2CCCCCC2)cc1OC1CCN(C(C)=O)CC1,3.1,2.0,0.64,2.4,3.0,-2,x
O=[N+]([O-])c1ccccc1O[C@@H]1O[C@H](CO)[C@H](O)[C@H](O)[C@H]1O,7.4,6.6,0.71,0.1,-1.8,3,3%
Nc1c(C(=O)CSc2nccn2-c2cccc(F)c2)c(=O)[nH]c(=O)n1C1CC1,0.6,-3.1,0.7,-1.3,-3.1,12,10%
CCN1CCN(Cc2cc(=O)oc3cc4c(cc23)CCC4)CC1,-1.3,7.0,0.69,0.2,0.4,2,-1%
COc1ccc(NC(=O)c2oc3cc(C)c(C)cc3c2C)c(OC)c1,-95,-1.9,0.77,1.1,0.0,-1,-10%&-5%
C=CCNC(=O)NC(=O)CSc1nc2cc([N+](=O)[O-])ccc2n1-c1cccc(C(F)(F)F)c1,0.3,-1.7,0.71,0.0,3.6,-6,9%
CCc1cc(C=NC2CCCCC2)c(O)s1,7.0,-5.2,0.68,-0.8,-0.6,-5,78µM*
Cc1nc2scc(C)n2c(=O)c1S(=O)(=O)NCC1CCN(Cc2ccc(Cl)cc2)CC1,-84,3.9,0.69,-0.4,1.2,2,x
Oc1c(-c2cc(-c3ccco3)[nH]n2)ccc2ccccc12,4.6,-1.4,0.73,-5.7,-5.8,11,25%
COc1ccccc1N(C)S(=O)(=O)c1ccc(Cl)c(C(=O)Nc2ccncc2)c1,3.3,-2.6,0.69,-0.7,2.0,-4,10%
Cc1cc(C)c(C(N)=O)c(NCCc2ccccc2)n1,-20,1.8,0.66,0.3,-3.3,6,11%

Ten structures already listed, sorted by molar mass, low to high.
compound,UCH37 DUB inh,HNF4A DNA FP,E coli growth,A1 inh,LANA-H2A inh,Beta2AR agonist,Vif A3G
C[n+]1ccn(CC(=O)c2ccc(Cl)cc2)c1,4.9,-0.5,0.66,0.3,-2.8,12,9%
CCc1cc(C=NC2CCCCC2)c(O)s1,7.0,-5.2,0.68,-0.8,-0.6,-5,78µM*
CC(C)NC(=S)NNc1nc2ccccc2s1,-0.7,-5.2,0.7,0.3,1.8,3,-6%
O=C(Cc1ccc(Cl)cc1)NNC(=O)c1cnccn1,-0.3,-2.0,0.63,0.0,-0.9,0,x
O=[N+]([O-])c1ccccc1O[C@@H]1O[C@H](CO)[C@H](O)[C@H](O)[C@H]1O,7.4,6.6,0.71,0.1,-1.8,3,3%
COc1ccc(CCNC(=O)CN2C(=O)c3ccccc3C2=O)cc1,0.3,0.6,0.66,-0.1,-3.7,11,4%
COc1ccc(NC(=O)c2oc3cc(C)c(C)cc3c2C)c(OC)c1,-95,-1.9,0.77,1.1,0.0,-1,-10%&-5%
COc1ccc(O)c(C(=O)c2cc(C#N)c(=O)n(CCN3CCOCC3)c2)c1,3.7,4.2,0.66,-1.2,-3.5,-5,8%
COc1ccccc1N(C)S(=O)(=O)c1ccc(Cl)c(C(=O)Nc2ccncc2)c1,3.3,-2.6,0.69,-0.7,2.0,-4,10%
Cc1nc2scc(C)n2c(=O)c1S(=O)(=O)NCC1CCN(Cc2ccc(Cl)cc2)CC1,-84,3.9,0.69,-0.4,1.2,2,x
